# miR-21 FLuc: miR-21 reporter, rising signal; HeLa miR-21 FLuc reporter, luciferase, 48 h; Potency, µM (highest dose often 38.3 µM), inactives show at the highest dose reporter change, positive = more light; 340,000 tested, under 10 active; AID 2288; active = well fitted rising curve with a large enough effect; inconclusive = small, poorly fitted or top-dose-only effect; inactive = no such curve, though single readings can be large or run the other way;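 further: % of control where 0% means no effect; miR-21 action dims this reporter so a rising signal means less miR-21 action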
#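 Using DMEM plus 10% FBS, HeLa miR-21-FLuc cells are incubated with test compounds (final up to about 40uM) for 48 hours; firefly luciferase signal is then imaged following reagent-mediated lysis.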
# Rango-impB inh: inhibitors of Rango-importin beta complex formation | AID 540263 | Potency, µM (highest dose often 92.2 µM), without a hit: at the highest dose inhibition of complex formation | Rango CFP/YFP FRET sensor + importin beta, 45 min | Q14974 | actives 0.031% (n = 340,000); active = rising FRET ratio curve, often small or poorly fitted; inconclusive = mostly compound fluorescence or quenching in the first reads; inactive = flat curves in all reads;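 further: potency means the concentration at half of the fitted maximal effect; 0% = DMSO wells and 100% = buffer wells lacking importin beta; nearly all actives have a fitted effect of over 15% in size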
# Target sequence (Q14974 whole entry, looked up): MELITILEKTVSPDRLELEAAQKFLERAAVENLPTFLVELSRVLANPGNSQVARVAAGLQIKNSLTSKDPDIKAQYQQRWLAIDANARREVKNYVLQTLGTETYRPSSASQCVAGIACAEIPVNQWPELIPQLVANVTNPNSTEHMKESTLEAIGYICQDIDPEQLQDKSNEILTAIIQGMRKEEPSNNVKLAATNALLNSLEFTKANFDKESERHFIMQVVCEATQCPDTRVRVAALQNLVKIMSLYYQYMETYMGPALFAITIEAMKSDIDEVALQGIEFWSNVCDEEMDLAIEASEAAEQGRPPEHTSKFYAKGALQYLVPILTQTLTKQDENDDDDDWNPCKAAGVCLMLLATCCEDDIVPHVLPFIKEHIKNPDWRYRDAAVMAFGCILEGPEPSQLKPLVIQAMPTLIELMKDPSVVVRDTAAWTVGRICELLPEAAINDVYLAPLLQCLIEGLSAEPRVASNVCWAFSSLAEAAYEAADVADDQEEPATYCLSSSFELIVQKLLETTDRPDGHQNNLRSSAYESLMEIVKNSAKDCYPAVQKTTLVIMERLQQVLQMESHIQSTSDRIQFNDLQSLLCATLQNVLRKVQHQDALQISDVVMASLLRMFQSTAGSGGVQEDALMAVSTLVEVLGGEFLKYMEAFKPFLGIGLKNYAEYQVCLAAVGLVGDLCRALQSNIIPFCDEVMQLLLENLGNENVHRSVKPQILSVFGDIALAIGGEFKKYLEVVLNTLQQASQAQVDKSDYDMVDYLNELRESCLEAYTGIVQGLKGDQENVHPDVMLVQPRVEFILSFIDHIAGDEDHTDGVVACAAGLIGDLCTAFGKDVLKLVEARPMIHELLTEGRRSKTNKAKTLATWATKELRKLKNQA
#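 FRET biosensor Rango (snurportin 1 IBB between N-terminal EYFP and C-terminal Cerulean), 50 nM in PBS/1 mM DTT/0.02% Tween-20/0.1% BSA, preincubated 5 min RT with compound; 0.125 microM importin beta added, 45 min RT, CFP/YFP FRET ratio read.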
# Rango dissoc inh: inhibitors of RanGTP-induced Rango-importin beta complex dissociation; O95149+P62826; Biochemical FRET Rango-importin beta, RanGTP-induced dissociation; Potency, µM (series often up to 46.1 µM), inactives show at the top dose activity change, negative = inhibition; actives 0.071% (n = 340,000); AID 540253; active means falling FRET ratio curve, often poorly fitted, with flat reads before Ran was added; inconclusive means other falling curves, or compound fluorescence or quenching; inactive means flat or rising ratio curve;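 further: potency means the concentration at half of the fitted maximal effect; % of control where 0% means no effect; nearly all actives have a fitted effect of over 45% in size; -100% = wells without RanGTP and RCC1; the record marks most hits as doubtful in a second field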
#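 Rango (0.1 uM)–importin beta (0.25 uM) complex; RanGTP-RCC1 trigger; 45 min RT; CFP/YFP FRET read.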
# GLA inh pH 4.5: inhibitors of human alpha-galactosidase A at pH 4.5; purified enzyme, 4-MU-alpha-Gal fluorescence, pH 4.5; activity change, negative = inhibition, % at 105 µM; 230,000 tested, under 10 active; AID 1467; inconclusive = small, poorly fitted or top-dose-only inhibition, or a rising curve; inactive = flat fitted curve, though single readings scatter; no compound was filed as active;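 further: 0% = full activity with enzyme and -100% = basal without enzyme; dose as in the result columns while the protocol names 77 µM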
# The depositor's hits bear a star; u = inconclusive; x = not tested or not shown.
SMILES,miR-21 FLuc,Rango-impB inh,Rango dissoc inh,GLA inh pH 4.5
COc1ccc(C(=O)Nc2nc3ccc(S(C)(=O)=O)cc3s2)cc1OC,-3%,-4.8%,-7%,u
CNC(=O)CCCN1C(=O)c2ccccc2Sc2ncccc21,-4%,0.2%,-12%,x
Cc1nn(CCC(=O)N2CCN(S(=O)(=O)c3ccc(Cl)cc3)CC2)c(C)c1C,4%,-2.1%,-6%,x
COc1cc(C2CC(=O)N3CN(Cc4ccccc4)CSC3=C2C#N)ccc1OCc1ccccc1 (centres undefined),-6%,u,u,-2
COc1ccc(C(=O)Nc2cc(C)c3c(=O)oc4ccccc4c3n2)cc1,0%,0.1%,18%,2
CCN1CCN(CCCNC(=O)c2ccc3c(Cl)c4c(nc3c2)CCCC4)CC1,18%,2.0%,-3%,x
CN1CCN(CCCN(Cc2cccs2)C(=S)Nc2ccc(Cl)cc2)CC1,0%,0.2%,8%,-8
CCOc1ncccc1C(=O)OCC(=O)Nc1cc(S(=O)(=O)N2CCCCC2)ccc1Cl,x,-1.5%,1%,x
COc1ccc2c(c1)sc(=N)n2C,25%,0.2%,-15%,16
COc1ccccc1NC(=O)CSc1nc2c(sc3ccccc32)c(=O)n1CCN(C)C,1%,0.8%,-19%,u
COc1ccc(-c2nc(-c3cccc(C)c3)nc(N3CCN(C)CC3)c2C#N)cc1,-4%,4.4%,1%,-4
CC(C)CCN1CCC(CN2C(=O)C(=O)NC[C@@H]2Cc2ccccc2)CC1,x,-0.5%,-22%,x
COc1ccccc1OCC(=O)NNC(=O)c1cnccn1,-4%,2.5%,0%,10
COCCn1c(=NC(=O)c2ccc(S(=O)(=O)N3CCOCC3)cc2)sc2cc(S(N)(=O)=O)ccc21,10%,-1.6%,0%,x
NC(=O)c1ccc(NC(=O)c2cncn2-c2ccccc2)cc1,-9%,-3.8%,-1%,x
Cc1onc(-c2ccccc2)c1C(=O)OCc1nnc(-c2ccccc2)o1,x,6.5%,-2%,x
O=C1CC2(CCN(C(=O)c3ccc(Cl)cc3)CC2)Oc2ccccc21,x,-4.3%,0%,x
Cc1ccc(NC2=NCC(=O)N2C2CCCC2)cc1C,-9%,4.0%,-3%,-1
COc1cc(CC(=O)OCC(=O)NCC(C)C)cc(OC)c1OC,4%,u,-23%,-2
CN(C)S(=O)(=O)c1ccc(F)c(C(=O)Nc2ccccc2C(=O)NC2CC2)c1,x,-0.3%,7%,x
CCCCC1(CC)C(=O)NC(=O)NC1=Nc1ccc(OC)cc1 (centres undefined),-30%,-1.6%,-3%,-5
CC(C)c1nc2scc(-c3ccc(Cl)cc3)c2c(=O)n1N,-23%,-2.6%,13%,-16
COc1ccccc1C(=O)NC(=O)Nc1cccc(Cl)c1,-73%,1.5%,-1%,x
COc1ccc(-c2cn(CCC(=O)O)c(-c3ccncc3)n2)cc1,x,0.5%,18%,x
COc1ccc(C(CC(=O)O)NC(=O)COc2ccccc2)cc1OC (centres undefined),-2%,4.5%,35%,4
O=C(CNS(=O)(=O)c1ccc(F)cc1)N1CCCCCC1,-22%,-0.6%,-5%,6
CNC(=S)N1N=C(c2ccc(OC)cc2)CC1c1ccc(Cl)cc1Cl (centres undefined),0%,-0.9%,-2%,-1
COc1ccc(-n2c(=O)cc(N3CCCCCC3)[nH]c2=O)cc1,-2%,-0.2%,-3%,-2
NC(=O)c1ccc(N=Nc2c(-c3ccccc3)[nH]n(-c3ccccc3)c2=O)cc1,0%,x,x,-11
CN1C[C@@H]2[C@@H]3C(=O)N(Cc4ccccc4)C(=O)[C@@H]3[C@](Cc3ccccc3)(C1=O)N2C(=O)c1ccc(F)cc1,x,0.4%,-10%,x

# 20 of the compounds above, with values under each structure:
# Values in the order – miR-21 FLuc, Rango-impB inh, Rango dissoc inh, GLA inh pH 4.5
- COc1ccc(-c2nc(-c3cccc(C)c3)nc(N3CCN(C)CC3)c2C#N)cc1
→ -4%, 4.4%, 1%, -4
- CC(C)CCN1CCC(CN2C(=O)C(=O)NC[C@@H]2Cc2ccccc2)CC1
→ x, -0.5%, -22%, x
- COc1ccccc1OCC(=O)NNC(=O)c1cnccn1
→ -4%, 2.5%, 0%, 10
- COCCn1c(=NC(=O)c2ccc(S(=O)(=O)N3CCOCC3)cc2)sc2cc(S(N)(=O)=O)ccc21
→ 10%, -1.6%, 0%, x
- NC(=O)c1ccc(NC(=O)c2cncn2-c2ccccc2)cc1
→ -9%, -3.8%, -1%, x
- Cc1onc(-c2ccccc2)c1C(=O)OCc1nnc(-c2ccccc2)o1
→ x, 6.5%, -2%, x
- O=C1CC2(CCN(C(=O)c3ccc(Cl)cc3)CC2)Oc2ccccc21
→ x, -4.3%, 0%, x
- Cc1ccc(NC2=NCC(=O)N2C2CCCC2)cc1C
→ -9%, 4.0%, -3%, -1
- COc1cc(CC(=O)OCC(=O)NCC(C)C)cc(OC)c1OC
→ 4%, u, -23%, -2
- CN(C)S(=O)(=O)c1ccc(F)c(C(=O)Nc2ccccc2C(=O)NC2CC2)c1
→ x, -0.3%, 7%, x
- CCCCC1(CC)C(=O)NC(=O)NC1=Nc1ccc(OC)cc1 (centres undefined)
→ -30%, -1.6%, -3%, -5
- CC(C)c1nc2scc(-c3ccc(Cl)cc3)c2c(=O)n1N
→ -23%, -2.6%, 13%, -16
- COc1ccccc1C(=O)NC(=O)Nc1cccc(Cl)c1
→ -73%, 1.5%, -1%, x
- COc1ccc(-c2cn(CCC(=O)O)c(-c3ccncc3)n2)cc1
→ x, 0.5%, 18%, x
- COc1ccc(C(CC(=O)O)NC(=O)COc2ccccc2)cc1OC (centres undefined)
→ -2%, 4.5%, 35%, 4
- O=C(CNS(=O)(=O)c1ccc(F)cc1)N1CCCCCC1
→ -22%, -0.6%, -5%, 6
- CNC(=S)N1N=C(c2ccc(OC)cc2)CC1c1ccc(Cl)cc1Cl (centres undefined)
→ 0%, -0.9%, -2%, -1
- COc1ccc(-n2c(=O)cc(N3CCCCCC3)[nH]c2=O)cc1
→ -2%, -0.2%, -3%, -2
- NC(=O)c1ccc(N=Nc2c(-c3ccccc3)[nH]n(-c3ccccc3)c2=O)cc1
→ 0%, x, x, -11
- CN1C[C@@H]2[C@@H]3C(=O)N(Cc4ccccc4)C(=O)[C@@H]3[C@](Cc3ccccc3)(C1=O)N2C(=O)c1ccc(F)cc1
→ x, 0.4%, -10%, x

# Later entries
SMILES,miR-21 FLuc,Rango-impB inh,Rango dissoc inh,GLA inh pH 4.5
C=CCNCc1ccc(C(=O)NCCCCCCC)cc1[N+](=O)[O-],x,1.3%,-9%,x
CSc1nnc(C)c(/C=C/Nc2ccc(Cl)cc2)n1,-12%,u,u,-14
CCCCN1C(=O)CC(SC2CC(=O)N(CCCC)C2=O)C1=O (centres undefined),x,1.4%,9%,x
O=C(Cn1ccccc1=O)Nc1ccc(Cl)c(S(=O)(=O)N2CCCCC2)c1,x,1.8%,21%,x
Cc1cccc(CN2CCC(CNC(=O)Nc3ccc(F)c(Cl)c3)CC2)c1,u,-1.1%,-2%,x
CCC(C(=O)OCC(=O)C1(O)CCC2C3CCC4=CC(=O)CCC4(C)C3C(O)CC21C)C(C)C (centres undefined),x,0.0%,20%,x
CCCc1nnc(SCC(=O)NC2CCCCC2)n1CCOC,-1%,6.5%,11%,x
O=C(COC(=O)/C=C/c1ccccc1Cl)NC1CCCCCC1,-1%,-4.9%,10%,2
COc1ccc(OCCCC(=O)Nc2ccc(N3CCCCC3)cc2)cc1,-11%,1.5%,-1%,-6
O=C(N/N=C/c1cn(-c2ccccc2)nc1-c1ccc(F)cc1)c1ccc(Br)o1,-13%,6.1%,-2%,-6
O=C(Nc1cc(F)cc(F)c1)c1sc(Cl)nc1-c1ccccc1,1%,3.1%,-3%,-9
COc1ccc2oc(=O)c(C(=O)Nc3ccccc3C)cc2c1,-52%,u,-22%,x
O=C(Nc1ccccc1C(=O)Nc1ccccn1)c1ccc([N+](=O)[O-])cc1,4%,0.2%,14%,-2
CCOC(=O)C1CCCN(C(=O)c2cc(Nc3ccc(OC)cc3)nc3ccccc23)C1 (centres undefined),-4%,-1.8%,0%,-1
COc1cc(Cl)c(S(=O)(=O)N2CC(C)OC(C)C2)cc1Cl (centres undefined),-7%,-0.1%,2%,0

# Next section, starting with the last 4 of the part before.
SMILES,miR-21 FLuc,Rango-impB inh,Rango dissoc inh,GLA inh pH 4.5
COc1ccc2oc(=O)c(C(=O)Nc3ccccc3C)cc2c1,-52%,u,-22%,x
O=C(Nc1ccccc1C(=O)Nc1ccccn1)c1ccc([N+](=O)[O-])cc1,4%,0.2%,14%,-2
CCOC(=O)C1CCCN(C(=O)c2cc(Nc3ccc(OC)cc3)nc3ccccc23)C1 (centres undefined),-4%,-1.8%,0%,-1
COc1cc(Cl)c(S(=O)(=O)N2CC(C)OC(C)C2)cc1Cl (centres undefined),-7%,-0.1%,2%,0
COCC(C)n1c(SCC(=O)NNC(=O)c2ccc(F)cc2)nc2ccccc2c1=O (centres undefined),2%,4.5%,-14%,7
CC(C)NC(=O)CS(=O)(=O)c1ccccc1,0%,2.8%,0%,x
COc1ccc(-c2sc(Nc3ccccc3)n[n+]2C)c(C)c1C,6%,0.0%,-19%,x
Cc1cc(Nc2ccc(C(=O)O)cc2)n2nc(C)nc2n1,-6%,2.0%,16%,3
Cc1cc(S(=O)(=O)N2CCN(CC(=O)NCCc3cccs3)CC2)ccc1Br,x,-2.6%,u,x
CCN(CC)CCNC(=O)C(=O)Nc1ccc(C(=O)OC)cc1,-1%,3.3%,-4%,-3
C#CCOCCOCCOCCNc1nc(N2CCN(C(=O)[C@H](CCC(=O)O)n3cc(C(N)CC(C)C)nn3)CC2)nc(N2CCN(C(=O)[C@H](CCC(=O)O)n3cc(C(N)CC(C)C)nn3)CC2)n1 (some centres undefined),1%,-2.6%,-7%,-2
O=C(CSc1nnc(NC(=O)c2c(F)cccc2F)s1)NC1CCCCC1,-13%,-1.9%,0%,x
Fc1c(CSC(=S)N2CCOCC2)cccc1CSC(=S)N1CCOCC1,4%,-2.3%,13%,-3
CCOc1cc(C(=O)N(C)CC(=O)Nc2cccc(F)c2)ccc1OCC(=O)N1CCOCC1,x,-0.5%,0%,x
CN(C)CCN(C(=O)CCS(=O)(=O)c1ccccc1)c1nc2c(F)cccc2s1,-4%,-0.2%,8%,x
CC1CCC2C(C1)c1sc(=O)[nH]c1SC2(C)C (centres undefined),-2%,0.8%,-4%,5
CNc1nc(N/N=C/c2cc([N+](=O)[O-])ccc2F)nc(Nc2ccccc2)n1,x,-2.1%,0%,x
O=C(Cc1ccc(-n2cccc2)cc1)N1CCN(c2ccccc2F)CC1,0%,-2.1%,2%,-11
O=S(=O)(Nc1ccc(-n2cnnn2)cc1)c1cccc(Cl)c1,x,-0.5%,9%,x
CC(C)CC(=O)NNC(=S)NCc1ccco1,-2%,-0.2%,-9%,2
N#Cc1c(NC(=O)c2ccccc2Cl)n(Cc2ccccc2)c2nc3ccccc3nc12,-1%,u,u,-9
CCCn1c(SCC(=O)Nc2cccc(C(=O)OC)c2)nnc1-c1cccnc1,7%,1.6%,13%,6
Cc1c(C(=O)NCCC2=CCCCC2)sc2ncnc(N3CCCCC3C)c12 (centres undefined),-5%,-0.5%,-2%,x
O=C(NCCOC(=O)Nc1cccc2ccccc12)OCc1ccccc1,x,6.8%,-6%,x
Cc1cc(C(=O)NCc2ccco2)c2cc(F)ccc2n1,-1%,-0.6%,-21%,-1
CCOC(=O)c1c(-c2cccs2)csc1NC(=O)COC(=O)c1c(C)noc1C,-15%,0.0%,0%,-9
COc1ccc([C@H]2CC(=O)C=C(c3ccc(F)nc3)C2)cc1OC,x,2.1%,-12%,x
COc1cccc(C(=O)N2CCC(n3nccc3NC(=O)C3CCOC3)CC2)c1 (centres undefined),1%,3.4%,10%,x
COc1nsnc1N1CCOCC1,2%,-0.8%,8%,6
Cc1nn2cc(-c3cccc(Cl)c3)cnc2c1Br,-12%,0.4%,5%,-9
O=C(CCC(=O)c1cccs1)Nc1ncccc1O,x,0.2%,1%,x
C/C(=C\C(=O)c1sccc1Cl)N(C)C,-45%,0.7%,1%,10
NC(=O)c1cc([N+](=O)[O-])ccc1NCCN1C(=O)c2ccc(C(=O)O)cc2C1=O,-1%,0.5%,1%,3

# Only part of the results is shown; rates above refer to the full screens.
